Compound activity from PubChem.
NPYLR7 agonist: agonists of mosquito NPYLR7 receptor, primary screen, cell-based, Aedes aegypti, calcium fluorescence, mosquito biting behavior; HEK293T NPYLR7/Galpha15, GCaMP6s calcium fluorescence; activation, % at 10 µM; actives 0.15% (n = 270,000); AID 1259423, 2018; in the data active means activation above about 40%;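 further: 0% = vehicle and 100% = reference agonist at the receptor; some compounds past the cut are filed as inactive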
NPYLR7 agonist max-min: second read-out of NPYLR7 agonist, no call of its own (marks repeat the call); activation, %; measured here: Max-Min RFU normalised activation; some inactives read as strong as hits;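 span of the calcium signal over five minutes; 0% = vehicle and 100% = native peptide agonist; compound fluorescence can raise it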
* hit, by the source's call; & = joins results of further samples.

SMILES	NPYLR7 agonist	NPYLR7 agonist max-min
O=C(NC(Cc1cccnc1)C(=O)Nc1cc(-c2ccncc2)c[nH]c1=O)OCC1c2ccccc2-c2ccccc21 (stereo unspecified)	5	36
Cc1cc2ccccc2n1CCC(=O)N1CCCC2(CC1)CNC(=O)O2 (stereo unspecified)	7	2
O=C(NC1CCCCC1)c1ccc(NC(=O)N2CCC3(CC2)OCCO3)cc1	1	0
C#Cc1ccc(CN2CCC(C(=O)Nc3ccc(Oc4ccccc4)nc3)CC2)cc1	-5	-5
CN(C)CCN(Cc1c(-c2ccccc2)noc1N(C)C1CCCCC1)C(=O)C1CCCC1	11	14
O=C1CSC(c2ccc(C(F)(F)F)cc2)N1CC(O)c1ccccc1 (stereo unspecified)	5	2
O=C(NCC1CCN(c2ccccc2)C1)N1CCCC1C1CCCC1 (stereo unspecified)	-5	-5
CC(NC(=O)c1ccoc1)C(=O)N(C)CCOc1ccccc1Cl (stereo unspecified)	6	3
CSc1ccccc1C(=O)N1CCN(c2ncnc3c2nnn3C)CC1	1	6
O=C(Cn1cnc([N+](=O)[O-])n1)N/N=C\c1ccc(Cl)cc1Cl	-7	-14
CCn1c(=O)c2c(nc3n(C(C)c4ccccc4)c(C)c(C)n23)n(C)c1=O (stereo unspecified)	8	3
COc1ccc(-n2nc3c(c2NC(=O)C24CC5CC(CC(C5)C2)C4)CSC3)cc1	-3	-5
Cc1nc2cc(C(F)(F)F)ccc2n1C1CCN(C(=O)/C=C/c2ccco2)CC1	-8	-11
C/C(=C\c1ccco1)CN1CCC(CNC(=O)NC(C)C)C1 (stereo unspecified)	2	2
CCc1nc2c(OCCC3CCCCC3)cccn2c1N(C)C(=O)C1CC1	-3	-6
O=C(CSc1nc2c([nH]c3ccccc32)c(=O)n1-c1ccc([N+](=O)[O-])cc1)N1CCCC1	0	27
CC(C)c1ccc(C(=O)N2CCCC(N3CCC(CO)CC3)C2)c(=O)[nH]1 (stereo unspecified)	22	16
COCCN(CCOC)S(=O)(=O)c1ccc(C(=O)Nc2sc3c(c2C#N)CCC(C)C3)cc1 (stereo unspecified)	-5	-8
COc1ccc(-n2nc3ccc(N)cc3n2)cc1	-8	-8
N#CC12CC3CC(CC(C3)C1)C2	1	2
Cc1cc(S(=O)(=O)N2CCCC(CNC(=O)c3ccc4c(c3)OCO4)C2)c(C)s1 (stereo unspecified)	4	3
Cc1cc(C(=O)N2CCN(c3nc4c(Cl)cccc4s3)CC2)on1	8	11
CCC(=O)Nc1c(C)nc2ccc(C)cn2c1=O	2	0
O=C(CCn1c(=O)oc2ccccc21)Oc1ccccc1Cl	9	19
Cc1ccc(-c2cc3c(=O)n(CC(=O)Nc4ccccc4F)ncn3n2)cc1C	-9	-17
Cc1nc2sccn2c(=O)c1NC(=O)c1ccccc1Cl	17	10
O=C(Cc1ccccc1)Nc1ccnn1C1CCN(C2CCCCC2)CC1	9	3
Nc1c(S(=O)(=O)c2ccccc2)c2nc3ccccc3nc2n1Cc1ccc(S(N)(=O)=O)cc1	1	-10
Cc1ccc(C)c(COc2cccn3c(CCN4C(=O)c5c(C(C)C)nc6ccc(F)cc6c5C4=O)cnc23)c1	-4	-6
COCCCN(CC(=O)N(Cc1ccccc1)Cc1ccc(C)s1)C(=O)Nc1ccc(Br)cc1	13	20
CCCc1noc(CN(CC)Cc2ccncc2)n1	21	3
CC(C)(C)c1cc2nc(C(=O)N3CCN(c4cccc(C(F)(F)F)c4)CC3)cc(-c3ccccc3F)n2n1	-7&6	-2&22
CCOCCOc1nc(-c2ccccc2F)n(-c2ccc(NC(=O)c3ccc(Cl)cc3)cc2)n1	20	27
Nc1nc(N2CCN(Cc3ccccc3)CC2)nc(N2CCN(Cc3ccccc3)CC2)c1[N+](=O)[O-]	-2	-2
CCOC(=O)c1c(NC(=O)c2snnc2C)c(-c2ccc(OC)cc2)cn1Cc1ccccc1	13	19
CC(NC(=O)C1CCC1)c1nc(-c2cccc(Cl)c2)no1 (stereo unspecified)	3	3
C[C@]12CCC3c4ccc(O)cc4CCC3C1C[C@@H](O)[C@@H]2O (stereo partly specified)	-7	-13
Cc1cc(-c2cccc3cnccc23)cnc1N	2	3
O=C(NCc1ccc2c(c1)OCO2)c1ccc(CN2CCCCC2)cc1	13	5
COc1ccccc1N1CCN(c2nc(Cc3ccccc3)nc3cc(Cl)ccc23)CC1	4	16
CN(CC(=O)Nc1ccc(Cl)cc1)C(=O)CSc1ccccn1	29	17
COc1ccc(CN2CC(OC)CN(C(=O)c3ccc(N(C)C)cc3)CC2=O)cc1 (stereo unspecified)	19	14
CCOC(=O)c1c(NC(=O)C=Cc2cccs2)sc2c1CCC(C)C2 (stereo unspecified)	-7	-9
OCCn1c(SCCc2ccccc2)nc2ccccc21	5	5
CC1c2[nH]c3ccccc3c2CCN1CC(=O)NCc1cccs1 (stereo unspecified)	7	4
CC(C)C(N)c1csc(Nc2ccc(C(=O)N(C)Cc3ccccc3)cn2)n1 (stereo unspecified)	-6	-10
Cc1nnc(SCCC(=O)N2CCCC3(CCN(C)CC3)CC2)s1	5	4
Cc1cccc(-n2nc(C(=O)O)c(=O)n(Cc3ccccc3Cl)c2=O)c1	1	6
CCCc1cc(=O)[nH]c(Nc2ccccc2O)n1	-12	-18
CCOC(=O)C1(CCOc2ccccc2)CCCN(Cc2cc(OC)c(O)c(OC)c2)C1 (stereo unspecified)	13	5
O=C(CC1CNCCO1)N1CCC2(CC1)C(=O)Nc1ccccc12 (stereo unspecified)	3	4
CC(C)(C)c1ccc(C(=O)NCC(=O)N=Nc2c(O)n(CCc3ccccc3)c3ccccc23)cc1	7	-8
Cc1noc(C)c1CC(=O)N1CCc2c([nH]c3ccccc23)C1c1ccccn1 (stereo unspecified)	3&21	-2&24
CC(C)c1cc(=O)n2c(n1)SCC2CC(=O)Nc1cccc(F)c1 (stereo unspecified)	-3	-4
O=C(NCC(=O)N1CCOC(COc2ccc(F)cc2)C1)c1ccco1 (stereo unspecified)	28	25
CCOc1ccc(NC(=O)CSc2nnc(CNC(=O)c3ccco3)n2-c2cccc(C(F)(F)F)c2)cc1	-8	-8
CSc1nncn1-c1cccc(NS(=O)(=O)c2ccc(F)cc2)c1	-3	-4
Cc1cnc(C(=O)N2CCCC(C(=O)c3ccc(-c4ccccc4)c(F)c3)C2)cn1 (stereo unspecified)	2	-6
CCOC(=O)c1ccc(O)cc1	2	1
CCC(C)(NC(=O)c1cc(C2CC2)on1)c1nc(C)cs1 (stereo unspecified)	0	-2

Carrying on.
SMILES	NPYLR7 agonist	NPYLR7 agonist max-min
Cc1noc(-c2cccc(F)c2)c1C(=O)NCCOc1ccccc1	9	20
CCOC(=O)C1(CCCc2ccccc2)CCN(C(=O)CCN2CCCCO2)CC1	-9	-11
CN(CC(=O)N1CCN(S(=O)(=O)c2ccccc2Cl)CC1)Cc1ccco1	7	4
CC(C)(C)CC(=O)N(Cc1cc(Cl)ccc1OS(C)(=O)=O)CC1CCCO1 (stereo unspecified)	13	19
CCOc1ccc(NC(=O)c2cc3ccccc3oc2=O)cc1	0	5
COc1cccc2sc(N(Cc3cccnc3)C(=O)/C=C/c3cccs3)nc12	-24	-16
COc1ccc(-c2c(NC(=O)c3cccs3)n(-c3ccccc3)nc(C)c2=O)cc1	5	4
Cc1nc(N2CCC(C)CC2)ncc1-c1cc(=O)[nH]c(N2CCN(Cc3ccccc3)CC2)n1	3	0
CCN(C(C)c1ccc(F)cc1)S(=O)(=O)c1ccc(C(N)=O)cc1 (stereo unspecified)	-7	-8
CCOC(=O)c1nn(-c2ccccc2)c(=O)c2c(NC(=O)Cc3cccc(C)c3)scc12	3	-3
CC(NC(=O)c1cnn(C(C)C)c1C(F)(F)F)C(=O)NCc1ccccc1 (stereo unspecified)	9	4
O=C(c1cccc(Oc2ccccc2)c1)N1CCCC(O)C1 (stereo unspecified)	5	1
O=C1C(NS(=O)(=O)c2ccc([N+](=O)[O-])cc2)=C(n2cnc3ccccc32)C(=O)c2ccccc21	8	13
Cc1nn(C)c(C)c1N=Cc1c(O)[nH]c(=O)[nH]c1=O	-1	-5
O=C(CN1CCC(c2ccccc2)C1)NC1CCC(n2cnnc2)CC1 (stereo unspecified)	0	-3
O=C(C1CCCCCC1)N1CCCC1c1nnc2c(C(F)(F)F)cccn12 (stereo unspecified)	-7	-13
CCN(CC)c1ccc(C=NNC(=O)CNC(=O)c2ccc([N+](=O)[O-])cc2)cc1	-3	-3
CCn1c(SCC(=O)c2cc(C)n(-c3cc(C)on3)c2C)nnc1-c1ccco1	12	14
O=C1NCCN2CCN(C(=O)c3ccccc3-c3ncn[nH]3)CC12 (stereo unspecified)	3	1
C=CCCOC(=O)N1CCC2(CC1)[C@H](C(=O)N(C)c1ccccc1)[C@@H](OC)C(=O)N2C	24	33
CC1(C(=O)NS(=O)(=O)c2ccccc2Cl)CCN1C(=O)Cc1ccccc1Cl (stereo unspecified)	8	1
COCCCN(CC(=O)N(Cc1ccc2c(c1)OCO2)Cc1cccs1)S(=O)(=O)c1cc(Cl)ccc1Cl	-9	-16
C#CCSc1nc(=O)n2ccc(C)cc2n1	6	1
CCNC(=O)C1CCN(CC(=O)Nc2cc(OC)cc(OC)c2)C1 (stereo unspecified)	-2	-6
Cc1ccn2c(=O)cc(CNc3cccc(C(=O)NC4CC4)c3)nc2c1	-2	-4
Fc1ccc(C2=NNC(=Nc3ccccn3)SC2)cc1	2&-10	1&-14
O=C(NCc1ccccn1)c1ccc(CSc2nnc3ccccn23)cc1	4	3
CC(C)=CCc1c2c(c(O)c3c(=O)c(O)c(-c4ccccc4)oc13)C=CC(C)(C)O2	-4	-8
CC(C)c1nn(C)cc1C(=O)O	1	1
CN1C2CCC1CC(OC(c1ccccc1)c1ccccc1)C2 (stereo unspecified)	1&-8&7	-4&-12&-9
COC(=O)c1cc2n(n1)CCN(C(=O)c1ccc(S(C)(=O)=O)cc1)C2	3	1
O=C(NC1CCN(c2ccccc2C(=O)NCc2cccc(C(F)(F)F)c2)CC1)c1cccs1	4	18
CC(=O)c1ccc(N=c2oc3ccc4ccccc4c3cc2C(N)=O)cc1	-7	-14
Oc1ccc2ccccc2c1C=Nc1nc2c(s1)CCCC2	3	1
Cc1ccc(F)cc1NC(=O)c1cc(Cl)ccn1	16	16
COc1ccc(C2Nc3ccccc3C(=O)N2Cc2ccccc2)cc1CSc1ccccn1 (stereo unspecified)	1	1
COC(=O)c1ccc(OC)c(-c2c(OC)cc(OC)c3c(=O)cc(-c4ccc(OC)cc4)oc23)c1	11	11
CCn1c(C)cc(O)c(C(c2ccncc2)N2CCC(Cc3ccccc3)CC2)c1=O (stereo unspecified)	12	4
O=C(C1CC1c1ccco1)N1CCCC(COc2ccccc2)C1 (stereo unspecified)	-1	0
CCOC(C)c1nc(CN(C)C(=O)c2ccc3cc[nH]c3c2)cs1 (stereo unspecified)	3	0
COc1ccccc1-c1ccc2c(c1)C(C)(Cc1ccc(F)cc1)C(=O)N2 (stereo unspecified)	2	1
COc1ccc([C@H]2[C@@H](C(=O)N3C[C@@H](C)O[C@@H](C)C3)c3ccccc3C(=O)N2Cc2ccccc2)cc1	-8	-13
CCc1ccccc1NC(=O)c1cnn2c(C(F)(F)F)cc(-c3cc(OC)c(OC)c(OC)c3)nc12	8	7
C=CCOc1ccc(Cl)cc1CN1CCC2(CC1)CNC(=O)C2	-6	-7
Clc1ccc2nc(NCc3ccc4c(c3)OCO4)c3nncn3c2c1	7	6
O=C(CCC1CCN(Cc2cccc3nonc23)CC1)Nc1ccc(F)c(Cl)c1	14	6
CCCC(=O)N1CCCC1C(=O)Nc1[nH]nc2c1c(CC)nn2C (stereo unspecified)	6	4
Cc1nnc(SCC(=O)Nc2sc3c(c2C(N)=O)CCCC3)s1	-4	-8
C=C(C)COc1cccc(C(=O)N(C)Cc2ccc3c(c2)OCO3)c1	0	-2
CC1(C)COC(c2ccccc2Cl)CN1Cc1ccc(C#N)cc1 (stereo unspecified)	12	0
CC(=O)Oc1ccc(/C=C2N=C(/C=C/c3ccc(C)cc3)OC\2=O)cc1OC(C)=O	3	4
O=C1NC(=Nc2ccccc2)S/C1=C/c1cccc(OCc2ccccc2)c1	-9	-13
CNC(=O)C1Cc2ccccc2N1C(C)=O (stereo unspecified)	8	9

Some of the entries above in another layout:
SMILES | NPYLR7 agonist | NPYLR7 agonist max-min
CCn1c(C)cc(O)c(C(c2ccncc2)N2CCC(Cc3ccccc3)CC2)c1=O (stereo unspecified) | 12 | 4
O=C(C1CC1c1ccco1)N1CCCC(COc2ccccc2)C1 (stereo unspecified) | -1 | 0
CCOC(C)c1nc(CN(C)C(=O)c2ccc3cc[nH]c3c2)cs1 (stereo unspecified) | 3 | 0
COc1ccccc1-c1ccc2c(c1)C(C)(Cc1ccc(F)cc1)C(=O)N2 (stereo unspecified) | 2 | 1
COc1ccc([C@H]2[C@@H](C(=O)N3C[C@@H](C)O[C@@H](C)C3)c3ccccc3C(=O)N2Cc2ccccc2)cc1 | -8 | -13
CCc1ccccc1NC(=O)c1cnn2c(C(F)(F)F)cc(-c3cc(OC)c(OC)c(OC)c3)nc12 | 8 | 7
C=CCOc1ccc(Cl)cc1CN1CCC2(CC1)CNC(=O)C2 | -6 | -7
Clc1ccc2nc(NCc3ccc4c(c3)OCO4)c3nncn3c2c1 | 7 | 6
O=C(CCC1CCN(Cc2cccc3nonc23)CC1)Nc1ccc(F)c(Cl)c1 | 14 | 6
CCCC(=O)N1CCCC1C(=O)Nc1[nH]nc2c1c(CC)nn2C (stereo unspecified) | 6 | 4
Cc1nnc(SCC(=O)Nc2sc3c(c2C(N)=O)CCCC3)s1 | -4 | -8
C=C(C)COc1cccc(C(=O)N(C)Cc2ccc3c(c2)OCO3)c1 | 0 | -2
CC1(C)COC(c2ccccc2Cl)CN1Cc1ccc(C#N)cc1 (stereo unspecified) | 12 | 0
CC(=O)Oc1ccc(/C=C2N=C(/C=C/c3ccc(C)cc3)OC\2=O)cc1OC(C)=O | 3 | 4
O=C1NC(=Nc2ccccc2)S/C1=C/c1cccc(OCc2ccccc2)c1 | -9 | -13
CNC(=O)C1Cc2ccccc2N1C(C)=O (stereo unspecified) | 8 | 9

Some of the compounds tested, so the mix of outcomes need not match the whole.
